VACV mCherry inh: qHTS for Stage-Specific Inhibitors of Vaccinia Orthopoxvirus: mCherry Reporter Primary qHTS; Vaccinia virus mCherry reporter infection, fluorescence; about a quarter of the inactives have no number; Potency, µM (series often up to 36.5 µM), inactives show top-dose activity change, negative = inhibition, usual class: inhibitors; 310,000 tested, 0.63% active; active = well fitted inhibition curve with a large enough effect; inconclusive = small, poorly fitted or top-dose-only effect; inactive = no such curve, though single readings can be large or run the other way; tested in A549 cells; also: nearly all actives have a fitted effect of over 35% in size; inactives centre near -10
Vaccinia Venus: qHTS for Stage-Specific Inhibitors of Vaccinia Orthopoxvirus: Venus Reporter Primary qHTS; AID 720580, 2013; 330,000 tested, 0.46% active; Vaccinia virus Venus reporter expression, fluorescence; Potency, µM (series often up to 36.5 µM), for the others: at the top dose activity change, negative = inhibition, usual class: inhibitors; active means well fitted inhibition curve with a large enough effect; inconclusive means small, poorly fitted or top-dose-only effect; inactive means no such curve, though single readings can be large or run the other way; tested in A549 cells; also: nearly all actives have a fitted effect of over 30% in size; inactives centre near -10
The depositor's hits bear a star; i = inactive; ? = inconclusive; . = not tested or not shown; & = joins results of further samples; [ ] = another dose, or the depositor's remark. % is scaled to controls: 0 for no effect and ±100 for the full control effect; potency is read from the fitted curve at half-maximal effect.

SMILES | VACV mCherry inh | Vaccinia Venus
CC1CCN(Cc2c(O)ccc3c2O/C(=C\c2ccco2)C3=O)CC1 | -1% | -17%
CC1CC(=O)NN=C1c1ccc(N)c([N+](=O)[O-])c1 (stereo not drawn) | 3% | 10%
Cc1ccc(C)c(OC(C)C(=O)Nc2ccc(S(=O)(=O)Nc3nccs3)cc2)c1 (stereo not drawn) | -4% | -4%
Cc1cccc(NC(=S)NC(C)CCc2ccccc2)c1 (stereo not drawn) | -3% | -19%
COC(=O)/C(C#N)=C/c1c(N2CCN(c3ccccc3)CC2)nc2ccccn2c1=O | -4% | -5%
O=C(NCc1cccc(Cl)c1)c1ccc(-c2cccnc2)c2ccoc12 | 5% | -24%
Clc1ccc(-c2nc3ccncc3[nH]2)cc1 | i | -14%
COc1ccc(CN2CCN(C(=O)c3ccc(S(=O)(=O)N4CCCCCC4)cc3)CC2)cc1 | -4% | -15%
O=c1c2ccccc2c(C=NC2CCS(=O)(=O)C2)c(O)n1-c1ccccc1 (stereo not drawn) | 3% | -7%
Cc1cccc(-c2noc(CN(C(=O)c3ccc4c(c3)OCO4)C(C)C)n2)c1 | -23% | -20%
CCCCN(C(=O)CC1OC(=O)c2ccccc21)c1c(N)n(CCCC)c(=O)[nH]c1=O (stereo not drawn) | -6% | -5%
COc1ccc(NC(=O)c2ccc3c(c2)C(=O)N(Cc2ccncc2)C3=O)cc1S(N)(=O)=O | -8% | 2%
COC(=O)c1ccc(NC(=O)C2CC3CCC2C3)cc1 (stereo not drawn) | i[7.34 µM] | -3%[7.34 µM]
CCN(CC)c1ccc(NC(=O)c2ccccc2F)cc1 | ? | ?
COc1cc(Br)c(-c2sc(Nc3ccccc3)n[n+]2-c2ccc(F)cc2)cc1OC | ? | -8%

Exported in markdown: entries from further up.
| Structure | VACV mCherry inh | Vaccinia Venus |
| --- | --- | --- |
| O=C(NCc1cccc(Cl)c1)c1ccc(-c2cccnc2)c2ccoc12 | 5% | -24% |
| Clc1ccc(-c2nc3ccncc3[nH]2)cc1 | i | -14% |
| COc1ccc(CN2CCN(C(=O)c3ccc(S(=O)(=O)N4CCCCCC4)cc3)CC2)cc1 | -4% | -15% |
| O=c1c2ccccc2c(C=NC2CCS(=O)(=O)C2)c(O)n1-c1ccccc1 (stereo not drawn) | 3% | -7% |
| Cc1cccc(-c2noc(CN(C(=O)c3ccc4c(c3)OCO4)C(C)C)n2)c1 | -23% | -20% |
| CCCCN(C(=O)CC1OC(=O)c2ccccc21)c1c(N)n(CCCC)c(=O)[nH]c1=O (stereo not drawn) | -6% | -5% |

Two successive records already listed, for reference:
SMILES | VACV mCherry inh | Vaccinia Venus
Cc1cccc(NC(=S)NC(C)CCc2ccccc2)c1 (stereo not drawn) | -3% | -19%
COC(=O)/C(C#N)=C/c1c(N2CCN(c3ccccc3)CC2)nc2ccccn2c1=O | -4% | -5%

Carrying on.
SMILES | VACV mCherry inh | Vaccinia Venus
O=C(CCc1nc2ccccc2c(=O)[nH]1)NCCN1C(=O)S/C(=C\c2ccccc2Cl)C1=O | -21% | -14%
CCSc1nnc(NC(=O)c2cccc(S(=O)(=O)N(C)c3ccc(C)cc3)c2)s1 | i | -10%
CSc1nnc(Cc2ccc3c(c2)OCO3)o1 | -8% | 0%
COc1ccc(Cl)cc1-c1cc(C(=O)Nc2ccc(Br)cc2)[nH]n1 | i | -1%
COCCn1c(SCc2nnc(-c3ccc(OC)c(OC)c3)o2)nnc1-c1ccncc1 | -3% | -11%
COC(=O)C1=CO[C@@H](O[C@@H]2OC(CO)[C@@H](O)[C@@H](O)[C@@H]2O)C2C1CC[C@]2(C)O (stereo partly drawn) | 0% | 2%
CCCCCCCCN1[C@@H](CC(=O)O)c2cc(F)ccc2S1(=O)=O | i | -5%&-10%
CC(=O)Oc1ccc2c(c1)C(=O)c1ccccc1CO2 | -6% | -9%
Cc1ccc(C(=O)Nc2ccc(F)cc2)cc1S(=O)(=O)N1CCOCC1 | -11% | -3%
CC(C)(C)C1c2[nH]c3ccccc3c2CCN1Cc1cccc(OCCO)c1 (stereo not drawn) | -23% | -23%
C=CCN1c2ccccc2[C@]23C[C@@H](C(=O)OC)N(C(=O)c4cccs4)C2=NC(C(=O)OC)=C(C(=O)OC)[C@H]13 | ? | ?
CCN(CC(=O)Nc1c(F)cccc1F)C(=O)C1CC(=O)N(c2ccc3c(c2)OCCO3)C1 (stereo not drawn) | i | -12%
COc1ccc(-n2ccn(CC(=O)NCCc3ccccc3)c(=O)c2=O)cc1OC | -9% | -3%
Cc1ccc(F)cc1NC(=O)C1CCCN(c2ncccn2)C1 (stereo not drawn) | -7% | -8%
CCCCC(=O)N(c1ccc(OCC)cc1)C1C=CS(=O)(=O)C1 (stereo not drawn) | i | -10%
CCOc1ccc(CCNC(=O)c2cc(Nc3ccc(C)cc3C)nc3ccccc23)cc1OCC | -16% | -9%
COc1ccc(NC(=O)c2cc3c(CO)cnc(C)c3oc2=Nc2cc(OC)cc(OC)c2)cc1 | -6% | 5%
CCCCC(O)(CCCC)C(=O)NN(C(=O)OCC)c1ccccc1 | -13% | 3%
NC(=O)c1nsc(C(=O)N(c2ccc3c(c2)OCO3)C(C(=O)NCC2CCCO2)c2ccc(F)cc2)c1N (stereo not drawn) | -10% | -4%
CCNc1ccc(C(=O)OCC)cc1NC(=O)c1cccc(N(C)C)c1 | ? | ?
CCOP(=O)(O)c1cccc(OCCOCCOc2cccc(P(=O)(O)OCC)c2)c1 | -8% | 0%
O=C(COC(=O)c1ccc(Br)cc1)NCC1CCCO1 (stereo not drawn) | i | -15%
CCCCn1c(SCC(=O)NCc2ccc3c(c2)OCO3)nnc1C(CC)N(C)C (stereo not drawn) | -4% | 3%
CC(C)Cc1nc2ccccc2n1CCc1ccccc1 | i | 0%
O=C(CSc1nccn1Cc1ccc(Cl)cc1)Nc1nc2ccccc2s1 | -7% | -17%
Cc1nc2ccc(S(=O)(=O)CCC(=O)Nc3ccccc3C)cc2s1 | i | -14%
CC(C)c1nc2ccc(C(=O)NCc3ccc(F)cc3)cc2o1 | -13%[7.34 µM] | -5%[7.34 µM]
Cc1cc(C(=O)N/N=C/c2c(C)nn(-c3ccccc3)c2C)c(C)o1 | i | -24%
N#Cc1cccc(N2[C@@H](Cc3cc4ccccc4n3Cc3ccccc3)COC[C@H]2Cc2ccc3ccccc3c2)c1 | -1% | -1%
CCCCCCN1CCN(C2CN(Cc3cn(CCCC(=O)OC)nn3)S(=O)(=O)C2)CC1 (stereo not drawn) | 2% | -7%

Fetched by compound from above, six records:
SMILES | VACV mCherry inh | Vaccinia Venus
COc1ccc(NC(=O)c2cc3c(CO)cnc(C)c3oc2=Nc2cc(OC)cc(OC)c2)cc1 | -6% | 5%
CC(C)c1nc2ccc(C(=O)NCc3ccc(F)cc3)cc2o1 | -13%[7.34 µM] | -5%[7.34 µM]
CCOP(=O)(O)c1cccc(OCCOCCOc2cccc(P(=O)(O)OCC)c2)c1 | -8% | 0%
CCCCCCN1CCN(C2CN(Cc3cn(CCCC(=O)OC)nn3)S(=O)(=O)C2)CC1 (stereo not drawn) | 2% | -7%
CCCCC(O)(CCCC)C(=O)NN(C(=O)OCC)c1ccccc1 | -13% | 3%
CCOc1ccc(CCNC(=O)c2cc(Nc3ccc(C)cc3C)nc3ccccc23)cc1OCC | -16% | -9%

Other records
SMILES | VACV mCherry inh | Vaccinia Venus
COc1ccc(Nc2ncc(C(=O)Nc3cccc(OC)c3)c3ccccc23)cc1 | -8% | -9%
COC(=O)c1ccc(Nc2nc(N3CCOCC3)nc(N3CCOCC3)n2)cc1 | i | -14%
CC1=C(C(=O)OCc2ccccc2)C(c2cccs2)N2C(=O)CCSC2=N1 (stereo not drawn) | i | -12%
O=C1NC(=S)S/C1=C\c1cc2ccccc2nc1N1CCCCC1 | i | -6%
CSc1ccc(NC(N)=S)cc1 | i | -5%
CCOC(=O)c1ccc(NC(=S)NNC(=O)C2(C)CC2(Cl)Cl)cc1 (stereo not drawn) | . | -20%
COC(=O)c1ccc(N2NC(=O)/C(=C/c3cc(OC)c(O)c(OC)c3)C2=O)cc1 | -2% | -4%
CC1=C(C#N)c2nc(N)c(C#N)c(C)c2/C1=C\c1ccc(-c2ccccc2C(=O)O)o1 | 36%[activator] | 42%[activator]
OC(COc1ccc(F)cc1)CN1CCN(CC(O)COc2ccc(F)cc2)CC1 (stereo not drawn) | -7% | -11%
O=C(NC(=S)Nc1cccc(C(F)(F)F)c1)c1csnn1 | -19% | -11%
Cc1cc(C(=O)OCC(N)=O)c(C)n1-c1ccccc1 | i | -12%
Cc1ccc(-n2c(=O)c3c4c(sc3n(Cc3cc(=O)n5cc(Cl)ccc5n3)c2=O)CCC4)cc1C | -10% | -7%
COc1ccc2c(c1)cc1c(=O)n(CC(=O)NC3CC3)nc(C)n12 | -6% | -4%
COc1cc(/C=N/OCC(=O)NC2CCCCC2)ccc1OCc1ccccc1 | -1% | -14%
CN(C)CCNC(=O)/C(=C/c1ccc(-c2ccc(Cl)cc2)o1)NC(=O)c1ccccc1 | -4% | ?
Cc1c(C(=O)N2CCN(C(=O)c3ccco3)CC2)sc2nc(-c3ccc(F)cc3)cn12 | i | -21%
CCOc1ccc(NC(=O)CCC(=O)NNC(=O)c2cccc([N+](=O)[O-])c2)cc1 | -24% | -3%
CSc1ccc(CN2CCN(c3ccccc3C)CC2)cc1 | -9% | -3%
Cc1cc2cc(C)c3nnc(SCC(=O)Nc4ccc(S(=O)(=O)N5CCCCC5)cc4)n3c2cc1C | -15% | 0%
CCCn1c(C)cc(C(=O)CN2C(=O)c3cccc(N)c3C2=O)c1C | -6% | -1%
Cc1cc(C)cc(OCCCOc2cccc3cccnc23)c1 | -23% | -37%
COc1cccc2c1Oc1ncccc1N(C(=O)CCC(=O)NCc1ccc(C)cc1)C2 | -10% | -12%
CC1(C)COC(c2cccc([N+](=O)[O-])c2)OC1 | i | 7%
Cc1cc(C)cc(OCC(=O)O/N=C(\N)c2ccccn2)c1 | . | -1%
O=C(CN1CCN(S(=O)(=O)c2ccc(F)cc2)CC1)c1ccc(O)c(O)c1 | -4% | -1%
COc1ccc(CNC(=O)CSc2n[nH]c(N)n2)cc1OC | i | 4%
COc1cccc(Nc2ccc(Nc3cccc(OC)c3)nn2)c1 | ? | -27%
CC1CCCCN1CC(O)COc1ccc(OCC(O)CN2CCCCC2C)cc1 (stereo not drawn) | -24% | -6%
Cc1cc(NC(=O)c2ccc3c(c2)C(=O)N(Cc2cccnc2)C3=O)no1 | -8% | -9%
CC(C)n1c(SCC(=O)Nc2ccc(F)cc2)nnc1C1CC1 | -7% | -16%
CC(=O)c1c(C)nc2cc(Cl)ccc2c1N | 30% | -13%
O=C(NCCCN1CCCC1=O)C(=O)NCC1OCCN1S(=O)(=O)c1cc(F)ccc1F (stereo not drawn) | i | -9%
COc1ccc(N(CC(O)Cn2c3ccccc3c3ccccc32)S(=O)(=O)c2ccccc2)cc1 (stereo not drawn) | . | ?
Cc1ccc(NC(=O)c2ccc(NCCc3ccccc3)c([N+](=O)[O-])c2)cc1F | -10% | -1%
COc1ccc(-c2csc(NC(=O)CN3C(=O)CCC3=O)n2)c(OC)c1 | -13% | -16%
COC(=O)[C@H](Cc1ccccc1)NC(=O)NCc1ccc(C)cc1 | -11% | -17%
CC(=O)Nc1cc(-c2ccc(CO)cc2)cn2c(-c3cccc(C(F)(F)F)c3)cnc12 | ? | ?
CC(=O)c1ccc(N(CC(=O)NC2CCCCC2)C(=O)c2csnn2)cc1 | -11% | 3%
CS(=O)(=O)N1CCc2cc(S(=O)(=O)NCCNS(=O)(=O)c3ccc4c(c3)CCN4S(C)(=O)=O)ccc21 | 3% | -7%
O=C(CCC1CCCN(C(=O)Cc2cccc(F)c2)C1)N1CCN(c2ccccn2)CC1 (stereo not drawn) | -14% | -7%
COc1ccc(OC)c(S(=O)(=O)N2CCN(C(=O)c3ccco3)CC2)c1 | -6% | -14%
CC[C@]12c3[nH]c4cc(CCC(=O)N(C)C)ccc4c3CCN1C(=O)[C@@H](CC(=O)NC/C=C(\C)CCC=C(C)C)C[C@@H]2C(=O)N1CCN(C(=O)c2ccco2)CC1 | -18% | ?
Cc1cc(C(F)F)n2nc(C(=O)Nc3ccc(F)c(Cl)c3)nc2n1 | -10% | -7%
O=C(NCCCN1CCCCC1)C1CCN(S(=O)(=O)N2CCC3(CC2)OCCO3)CC1 | -21% | -9%
O=S(=O)(NCC1CCCO1)c1cc(Cl)ccc1Br (stereo not drawn) | -24% | -24%
CCCN1C(=O)S/C(=C/c2ccc(N3CCOCC3)o2)C1=O | ? | 80%[activator]
COc1ccc(C(CNC(=O)C(=O)Nc2ccc3c(c2)OCCO3)N2CCN(C)CC2)cc1 (stereo not drawn) | 0% | -15%
CCn1c(SCC(=O)NNC(=O)Cc2ccccc2)nnc1-c1ccccc1 | -8% | -3%
CC(c1ccccc1)n1c(-c2ccncc2)n[nH]c1=S (stereo not drawn) | . | 1%
Cc1[nH]c(C)c(S(=O)(=O)N2CCN(c3ccccc3)CC2)c1C(=O)N1CCCCC1 | i[7.34 µM] | 0%[7.34 µM]
Cc1ccc(CC(=O)Nc2cc(C)on2)cc1 | -12% | -3%
